Assay outcomes (PubChem)
Resorufin fluor – qHTS Assay for Spectroscopic Profiling in Resorufin Spectral Region; 0.04% of 59,000 active; Compound fluorescence, resorufin region 547/598 nm, buffer; stronger effect = higher value; max dye-equivalent concentration, M; active = above 10 nM dye equivalent; inconclusive = 1 to 10 nM; inactive = 1 nM or less; a few of its hits are not listed in these tables; further: highest value over a series up to 38 µM
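Intrinsic fluorescence profiled in the resorufin window (ex 547 nm, em 598 nm) after 15 min at room temperature in pH 8.0 Tris buffer (100 mM); responses normalized against a six-point resorufin standard series as dye-equivalent concentration.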
A488 fluor – qHTS Assay for Spectroscopic Profiling in A488 Spectral Region | compound autofluorescence, A488 spectral region, dye equivalency; stronger effect = higher value | max dye equivalency, M | AID 591, 2007 | 0.1% of 59,000 active; active = above 10 nM dye equivalent; inconclusive = 1 to 10 nM; inactive = 1 nM or less; about half of its hits are not listed in these tables;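 further: highest value over a series up to 38 µM; compound alone in buffer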
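Compound autofluorescence was read in 100 mM Tris pH 8.0 after 15 min at room temperature, ex 480 nm/em 540 nm. Intensities were converted to A488 dye-equivalent concentration using an on-plate six-point A488 standard curve.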
A647 autofl – qHTS Assay for Spectroscopic Profiling in A647 Spectral Region. Compound fluorescence, A647 channel (570/671 nm), Tris buffer. max dye-equivalent concentration, M. 59,000 tested, under 10 active. AID 592, 2007; active means above 1 µM dye equivalent; inconclusive means 0.1 to 1 µM; inactive means 0.1 µM or less;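 further: values scaled relative to a standard on each plate; highest value over a series up to 38 µM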
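Compounds pinned into 100 mM Tris pH 8.0, 15 min at room temperature, then read with 570 nm excitation/671 nm emission filters. Fluorescence normalized to an on-plate six-point Alexa 647 standard curve, giving dye-equivalent concentration per compound concentration.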
TSHR agonist – qHTS Assay for Agonists of the Thyroid Stimulating Hormone Receptor; 0.48% of 73,000 active; Potency, µM (series often up to 57.1 µM), inactives show at the top dose activation, most hits filed as activators; AID 926, 2007; HEK293-CNG-TSHR cells (CNG channel as cAMP sensor), membrane potential dye, cAMP; active = well fitted activation curve of enough size with the parental cells flat; inconclusive = any curve in the parental cells; inactive = parental cells flat and receptor cells flat or falling; further: potency means the concentration at half of the fitted maximal effect; % of control where 0% means no effect; weak receptor curves with flat parental cells got no call and are not listed
Target sequence (P16473 whole entry, looked up): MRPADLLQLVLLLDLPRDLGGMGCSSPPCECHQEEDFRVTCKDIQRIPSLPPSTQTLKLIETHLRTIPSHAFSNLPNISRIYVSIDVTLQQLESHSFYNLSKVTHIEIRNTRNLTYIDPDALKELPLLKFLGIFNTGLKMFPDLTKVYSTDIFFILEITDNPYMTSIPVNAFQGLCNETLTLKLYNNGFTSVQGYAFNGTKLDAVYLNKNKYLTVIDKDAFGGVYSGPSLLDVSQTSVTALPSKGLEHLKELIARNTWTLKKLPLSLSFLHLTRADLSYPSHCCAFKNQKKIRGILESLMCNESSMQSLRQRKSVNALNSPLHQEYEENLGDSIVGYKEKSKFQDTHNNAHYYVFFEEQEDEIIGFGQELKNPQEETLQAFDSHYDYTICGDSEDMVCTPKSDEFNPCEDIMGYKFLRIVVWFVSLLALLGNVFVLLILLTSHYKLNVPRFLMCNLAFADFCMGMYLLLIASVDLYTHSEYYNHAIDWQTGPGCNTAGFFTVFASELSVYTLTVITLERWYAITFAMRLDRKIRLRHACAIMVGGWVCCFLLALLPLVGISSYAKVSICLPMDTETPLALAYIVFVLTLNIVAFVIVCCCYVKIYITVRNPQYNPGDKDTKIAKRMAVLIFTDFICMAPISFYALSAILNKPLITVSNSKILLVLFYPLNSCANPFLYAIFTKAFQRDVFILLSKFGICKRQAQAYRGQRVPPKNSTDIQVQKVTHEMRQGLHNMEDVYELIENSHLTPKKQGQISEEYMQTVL
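HEK 293 cells stably expressing TSHR and a modified CNG channel, with CNG-only parental cells as counterscreen, were preloaded 60 min at room temperature with membrane potential dye containing 100 uM RO 20-1724. Compound exposure was 30 min, and depolarization was read as fluorescence at 590 nm.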
AID923 – qHTS Assay for Allosteric/Competitive Inhibitors of Caspase-1: Spectroscopic Profiling in AFC Spectral Region | compound fluorescence, AFC spectral region (405/520 nm); almost no hit is shown here | Potency, µM (titrated, usually from 57.5 µM), without a hit: at the top dose fluorescence increase, actives largely listed as activators | 1.1% of 75,000 active; active means well fitted activation curve with a large enough effect; inconclusive means small, poorly fitted or top-dose-only effect;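 further: potency means the concentration at half of the fitted maximal effect; 0% is about no effect; scaled to a free AFC standard on each plate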
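Titrations up to 57 uM read every 20 sec for 3 min (405/520 nm) with 50 nM caspase 1 and 5 uM Ac-WEHD-AFC, pH 7.5 HEPES buffer. Fluorescence-vs-time intercept gave baseline, scaled against on-plate AFC standard.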
The depositor's hits bear a star; i = inactive; ? = inconclusive; nt = no result given; [ ] = remark or other dose. This is a subset (hit frequency here may not be typical).

SMILES | Resorufin fluor | A488 fluor | A647 autofl | TSHR agonist | AID923
N#Cc1ccc(CN2CCCC3(CCN(C(=O)c4ccco4)CC3)C2)cc1 | i | i | 1.1e-09 | 11% | 2.3%
Cc1ccc2nc(NC(=O)C3CCCN(S(=O)(=O)c4cccc5nsnc45)C3)sc2c1 (configuration not stated) | i | i | 3.8e-08 | -9%[11.4 µM] | 1.0%
O=c1cc(Cn2nnc(-c3ccc(Cl)cc3)n2)nc2sccn12 | i | i | 1e-09 | 5% | 0.3%
CCn1c(COc2ccc(OC)cc2)nnc1SCC(=O)Nc1cc(OC)ccc1OC | i | i | 1e-08 | 6% | 0.1%
CN(C1CCCCC1)S(=O)(=O)c1ccc(NC(=O)c2ccco2)cc1 | i | i | 4.6e-09 | ? | -2.1%
O=C(OCC(=O)N1CCC(Cc2ccccc2)CC1)c1ccc[nH]c1=O | i | i | 1e-09 | 13% | -0.4%
CCOc1ccc(-c2nnc(NC(=O)c3ccc(OCC(C)C)c(OC)c3)o2)cc1 | i | i | 2.8e-08 | ? | 0.1%
COc1ccc(NC(=O)Nc2c(C)n(-c3ccccc3)c(=O)n2C)cc1OC | i | i | 3.2e-08 | -2% | 1.7%
Cc1csc(NC(=O)C2CCCN(S(=O)(=O)c3cccnc3)C2)n1 (configuration not stated) | nt | nt | nt | -8% | -1.5%
Cc1ccc(NC(=O)C2CC(=O)NC(N3CCCCC3)=N2)cc1Cl (configuration not stated) | i | i | 1e-09 | 1% | -1.9%
Cc1ccc2cc(CN(Cc3nnnn3C3CCCCC3)CC3CCCO3)c(=O)[nH]c2c1 (configuration not stated) | i | i | 2.1e-09 | 15% | 1.7%
Cc1cccc(C)c1NC(=O)CN1CCN(CCCC(c2ccc(F)cc2)c2ccc(F)cc2)CC1 | i | i | 4.4e-09 | 1%[25.6 µM] | -0.7%[25.7 µM]
CCCn1c2c(c(O)c(C(=O)Nc3ncccc3O)c1=O)CCCC2 | i | i | 1e-09 | 11% | 3.4%
NC(=NCc1ccc(Cl)c(Cl)c1)NC(=O)c1nc(Cl)c(N)nc1N | i | i | 8.1e-09 | ? | 1.9%
O=C(Cn1cc(C(=O)c2ccco2)c2ccccc21)NC1CCCC1 | i | i | 1e-09 | 11% | 1.1%
CNC(=O)c1cc(C)c(-c2ccccc2)s1 | i | i | 2e-08 | -12% | -0.2%
CN(Cc1ccccc1)Cc1nc2c(c(=O)n(C)c(=O)n2C)n1Cc1ccccc1Cl | i | i | 3.2e-08 | ? | -1.6%
COc1ccc2[nH]cc(CCNc3cc(-c4ccc5c(c4)OCO5)ncn3)c2c1 | i | i | 4.4e-08 | 12% | 1.4%
CN=c1scc(C)n1/N=C/c1ccc2c(c1)OCO2 | i | i | 3.5e-08 | -13% | 3.6%
CCCCS(=O)(=O)c1sc2nc(C)cc(C)c2c1N | i | i | 6.2e-09 | -3% | -0.7%
COC(=O)c1c(F)c(F)c(NCCO)c(F)c1F | nt | nt | nt | ? | -0.5%
O=P(O)(CCc1ccccn1)CN1CCOCC1 | nt | nt | nt | -3% | -0.6%
CC1Cc2cc(/C(O)=C3/C(=O)C(=O)N(Cc4ccco4)C3c3cccs3)ccc2O1 (configuration not stated) | i | i | 3.1e-08 | 11% | -0.7%
COc1cccc(/C(O)=C2\C(=O)C(=O)N(c3ccccn3)C2c2ccccc2OC)c1 (configuration not stated) | i | i | 2.6e-08 | nt | nt
Nc1ncnc2c([C@@H]3O[C@@H](CO)[C@H](O)[C@@H]3O)nsc12 | i | i | 3e-09 | -1%[11.4 µM] | 1.0%[11.5 µM]
CS(=O)(=O)N(CC(=O)Nc1cccnc1)c1ccc2c(c1)OCCO2 | i | i | 2.9e-08 | -5% | 0.4%
CCOC(=O)c1ccc(N2CSC3=C(C#N)C(c4ccc(OC)cc4OC)CC(=O)N3C2)cc1 (configuration not stated) | nt | nt | nt | 9% | 0.5%
Cc1ccccc1CSCC(=O)c1c(N)n(C)c(=O)n(C)c1=O | i | i | 1.3e-08 | -1% | -2.1%
CCC(=O)Nc1ccc(S(=O)(=O)c2ccc(NC(=O)CC)cc2)cc1 | i | i | 5.3e-09 | 0% | -0.8%
c1ccc(CSc2nnc(Cc3ccccn3)o2)cc1 | i | i | 2e-09 | -3%[11.4 µM] | 2.4%
O=S(=O)(c1cc(Cl)ccc1Br)N1CCCCC1 | i | i | 2.5e-08 | ? | 1.1%
COc1ccc(/C(C)=N\n2cnnc2)cc1 | nt | nt | nt | -3% | 0.4%
Cc1ccnc2c(N3C(=O)C4C5C=CC(C5)C4C3=O)cccc12 (configuration not stated) | nt | nt | nt | 11%[11.4 µM] | -0.5%
CCOC(=O)C1=C(N)OC2=C(C(=O)CC(C)(C)C2)C1c1ccoc1 (configuration not stated) | i | i | 2.1e-08 | ? | -0.8%
CCC(=O)N1CCN(c2ccc(Cl)cc2NC(=O)Cc2ccccc2)CC1 | i | i | 2.5e-08 | ? | -1.4%
FC(F)(F)c1nc2ncc(Cl)cc2[nH]1 | i | i | 3.6e-09 | -4%[11.4 µM] | -0.7%
CC1N=C2c3ccccc3N=C(SCc3cc(=O)n4ccccc4n3)N2C1=O (configuration not stated) | i | i | 2e-08 | -2% | 1.7%
O=C(CCCSc1nc2ccccc2[nH]1)N1CCN(c2ccccc2)CC1 | i | i | 1e-09 | 5% | 2.1%
Cn1c(C(=O)OC(C(=O)NC2CCCCC2)c2ccncc2)cc2sccc21 (configuration not stated) | i | i | 1e-09 | ? | 1.6%
Cc1ccc(C(O)CN2C3=NCCN3c3ccccc32)cc1 (configuration not stated) | i | i | 1.8e-08 | ? | -2.1%

Ten structures already listed, arranged by SMILES length, lowest first.
SMILES | Resorufin fluor | A488 fluor | A647 autofl | TSHR agonist | AID923
COc1ccc(/C(C)=N\n2cnnc2)cc1 | nt | nt | nt | -3% | 0.4%
FC(F)(F)c1nc2ncc(Cl)cc2[nH]1 | i | i | 3.6e-09 | -4%[11.4 µM] | -0.7%
c1ccc(CSc2nnc(Cc3ccccn3)o2)cc1 | i | i | 2e-09 | -3%[11.4 µM] | 2.4%
O=S(=O)(c1cc(Cl)ccc1Br)N1CCCCC1 | i | i | 2.5e-08 | ? | 1.1%
Cc1ccc(C(O)CN2C3=NCCN3c3ccccc32)cc1 (configuration not stated) | i | i | 1.8e-08 | ? | -2.1%
Cc1ccccc1CSCC(=O)c1c(N)n(C)c(=O)n(C)c1=O | i | i | 1.3e-08 | -1% | -2.1%
Cc1ccnc2c(N3C(=O)C4C5C=CC(C5)C4C3=O)cccc12 (configuration not stated) | nt | nt | nt | 11%[11.4 µM] | -0.5%
O=C(CCCSc1nc2ccccc2[nH]1)N1CCN(c2ccccc2)CC1 | i | i | 1e-09 | 5% | 2.1%
CCC(=O)Nc1ccc(S(=O)(=O)c2ccc(NC(=O)CC)cc2)cc1 | i | i | 5.3e-09 | 0% | -0.8%
CC1N=C2c3ccccc3N=C(SCc3cc(=O)n4ccccc4n3)N2C1=O (configuration not stated) | i | i | 2e-08 | -2% | 1.7%

(cont.)
SMILES | Resorufin fluor | A488 fluor | A647 autofl | TSHR agonist | AID923
CC(=O)N(c1ccccc1)C1SC(=O)N(c2ccccc2)C1=O (configuration not stated) | nt | nt | nt | 7%[11.4 µM] | -0.6%
CN1C(=O)NC(c2cccc(O)c2)C(C(=O)c2cccs2)C1(O)C(F)(F)F (configuration not stated) | i | i | 1e-09 | 2% | -0.2%
C=CCn1c(C)cc(C(=O)CN2C(=O)c3ccccc3C2=O)c1C | i | i | 3.2e-09 | -7%[11.4 µM] | 1.8%
CC(=O)OC[C@@H]1O[C@H](C/C=N\OC[C@@H](O)COCc2ccco2)C=C[C@@H]1OC(C)=O | nt | nt | nt | 15%[11.4 µM] | 0.8%[11.5 µM]
Cc1ccc(-n2c(SCC(=O)OC(C)C)nnc2-c2cnccn2)cc1 | i | i | 2.4e-08 | ? | 2.6%
Cn1c(NCc2ccccc2)nc2c1c(=O)n(Cc1ccc(Br)cc1)c(=O)n2C | i | i | 1e-09 | nt | nt
Nc1cc(N)nc(SCC(=O)Nc2ccc3c(c2)OCCCO3)n1 | i | i | 1e-09 | -3% | -0.3%
CCSc1nnc(Cc2cc(=O)[nH]c(=O)[nH]2)n1-c1ccc(F)cc1 | nt | nt | nt | -3% | 2.1%
CCN1CCCC1CN(Cc1cc2ccc(C)c(C)c2[nH]c1=O)C(=O)Nc1ccccc1OC (configuration not stated) | i | i | 6e-09 | 17% | 0.1%
O=C(OCCN1CCOCC1)c1cccnc1 | i | i | 1e-09 | -2% | -0.9%
CN(C(=O)c1ccncc1)C1CCS(=O)(=O)C1 (configuration not stated) | nt | nt | nt | -3% | 1.5%
O=C(Nc1nncs1)C1COc2ccccc2O1 (configuration not stated) | i | i | 1e-09 | 11% | 0.6%
O=C(O)C1CC(=O)N(Cc2ccccc2)C1 (configuration not stated) | i | i | 2.7e-08 | -1% | -1.4%
CC(=O)ON(C(C)=O)S(=O)(=O)c1ccc(Cl)cc1 | nt | nt | nt | 9% | 2.7%
CCOc1ccccc1NC(=O)C1CCN(c2ccc(S(=O)(=O)N3CCCC3)cc2)CC1 | i | i | 4.1e-09 | 11% | 0.6%
O=C(O)c1ccc2oc(SCC(=O)N3CCCCC3)nc2c1 | i | i | 1e-09 | 2% | -1.9%
O=C(CN1CCOCC1)NC1C2CC3CC(C2)CC1C3 (configuration not stated) | i | i | 6.6e-09 | 3% | 0.5%
N=c1c2c(-c3ccccc3)c(-c3ccccc3)n(Cc3ccco3)c2ncn1Cc1ccco1 | nt | nt | nt | ? | -1.1%
COCCn1c(SCC(=O)NCCc2ccccc2)nnc1-c1ccco1 | i | i | 2.4e-08 | 6% | 0.2%
Nc1nnc(CC(=O)NCc2ccccc2)s1 | i | i | 3e-08 | -3% | -0.7%
O=C1c2oc3ccccc3c(=O)c2C(c2cccc(Br)c2)N1Cc1ccco1 (configuration not stated) | i | i | 5.6e-09 | ? | -0.6%
COc1ccccc1NC(=O)C1=C(C)Nc2ncnn2C1c1ccc(C)o1 (configuration not stated) | i | i | 3.9e-08 | -1% | -0.2%
C=CCC1(O)C(=O)N2C(=C1C(=O)N1CCOCC1)c1ccccc1CC2(C)C (configuration not stated) | nt | nt | nt | ? | 2.5%
c1csc(CNc2nc(-c3ccc4c(c3)OCO4)nc3ccccc23)c1 | i | i | 1e-09 | 14% | 3.9%
CCOc1ccc2[nH]c(=O)c(CN(Cc3ccccc3)C(=O)N3CCCC3)cc2c1 | i | i | 2.2e-09 | ? | 0.5%
Cc1cccc(-n2ncc3c(NC(C)C)ncnc32)c1 | nt | nt | nt | ? | 0.6%
CCOC1(OCC)N=C(N)C2(C#N)C(c3cccc(OC)c3OC)C12C#N (configuration not stated) | i | i | 3e-09 | -1% | 5.6%
CCOc1ccc(NC(=O)CCNc2c(N3CCCC3)c(=O)c2=O)cc1 | i | i | 3.5e-09 | nt | 0.2%
NC(=O)c1c(N)sc2c1CCCCC2 | i | i | 1.2e-09 | -4% | 5.7%
CCN(CC)S(=O)(=O)c1cccc(C(=O)NCC(=O)OCC(=O)NCc2ccccc2)c1 | i | i | 4.4e-08 | -3% | -0.1%
CN1CCN(CC(=O)N2CCn3c4c(c5cc(C6CCCCC6)ccc53)CCCC42)CC1 (configuration not stated) | nt | nt | nt | 25% | 2.8%
CCN(CC(=O)Nc1ccc2c(c1)OCCO2)CC(=O)Nc1cc(C)on1 | i | i | 3e-08 | 9% | 1.1%
